Screens deposited in PubChem BioAssay by several laboratories.
GALR2 agonist: activates the human galanin receptor 2 | GALR2-expressing cells, agonist activation read-out | activation, %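 (tested at 5 µM)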 | AID 803 | O43603 | hit rate 0.48% among 140,000;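 active = above mean plus 3 SD of all compounds, about 5% in these data, not always enough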;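 also: 0% = vehicle buffer wells and 100% = reference agonist at full effect; tested in CHO reporter cells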
PKD1 kinase inh: blocks activity of human protein kinase D1 | PKD1 kinase fluorescence polarization assay | Q15139 | AID 797 | inhibition, %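 (about 10 µM by stock and volumes)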 | hit rate 0.056% among 200,000;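 active = inhibition of 50% or more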;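 also: controls were vehicle for no effect and a reference inhibitor for full effect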
Target sequence (Q15139 whole entry, looked up): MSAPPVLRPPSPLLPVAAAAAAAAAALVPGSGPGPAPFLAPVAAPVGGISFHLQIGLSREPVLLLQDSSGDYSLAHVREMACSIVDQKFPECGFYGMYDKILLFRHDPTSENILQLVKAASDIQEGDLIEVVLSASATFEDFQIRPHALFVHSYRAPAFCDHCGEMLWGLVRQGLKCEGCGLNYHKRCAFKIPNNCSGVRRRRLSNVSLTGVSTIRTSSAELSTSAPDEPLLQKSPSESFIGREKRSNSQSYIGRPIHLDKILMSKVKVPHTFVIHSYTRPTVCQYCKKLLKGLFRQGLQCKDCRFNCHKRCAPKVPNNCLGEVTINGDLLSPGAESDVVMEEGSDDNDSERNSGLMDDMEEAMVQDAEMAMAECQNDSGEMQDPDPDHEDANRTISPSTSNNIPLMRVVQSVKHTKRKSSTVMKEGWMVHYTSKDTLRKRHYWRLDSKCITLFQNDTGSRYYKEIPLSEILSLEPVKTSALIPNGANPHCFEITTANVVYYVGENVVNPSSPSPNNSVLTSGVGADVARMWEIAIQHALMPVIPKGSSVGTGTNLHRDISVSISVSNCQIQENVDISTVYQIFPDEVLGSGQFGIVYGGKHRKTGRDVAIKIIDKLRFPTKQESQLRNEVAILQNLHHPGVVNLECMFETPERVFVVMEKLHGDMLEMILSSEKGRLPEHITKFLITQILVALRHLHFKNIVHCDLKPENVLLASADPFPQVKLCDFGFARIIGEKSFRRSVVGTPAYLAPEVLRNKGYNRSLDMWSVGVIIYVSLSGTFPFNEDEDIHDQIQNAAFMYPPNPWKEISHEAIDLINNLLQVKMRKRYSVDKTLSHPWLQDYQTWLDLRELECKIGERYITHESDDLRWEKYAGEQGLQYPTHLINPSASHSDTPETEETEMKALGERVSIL
INS promoter inh: TRM-6 insulin promoter activity inhibition; TRM-6 cells (human fetal islet line), insulin promoter-eGFP reporter, imaging; reporter expression induced with tamoxifen; inhibition, % at 2 µM; hit rate 0.9% among 130,000; AID 1273;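 active = inhibition above the mean plus 3 SD, with well images judged a real hit on visual review, cut at about 60% in these data, passing the limit was not always enough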
RGS16-Gao HTS: regulators of human RGS16-Galphao interaction; bead-based flow cytometry RGS16-Galphao binding, fluorescence; actives lie on both sides; binding response (% of control), % at 10 µM; AID 1441; hit rate 0.38% among 220,000; O15492+P09471;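 active = below 25% or above 175%, edge rows of some plates excepted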;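 also: Galphao activated by GDP with aluminum fluoride before binding; 100% = wells without compound and 0% = beads without RGS; some results beyond the cut were filed as inactive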
HSV replic up: increases HSV replication in cells; maximum fold increase; hit rate 0.005% among 220,000; HSV replication augmentation in cells, fold increase; AID 1956;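 active = peak rise of 1.5-fold or more in the series; tested in PC3 cells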;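 also: first round at 10 µM; read as green reporter fluorescence; hits show the peak of a series up to 25 µM; 1 = signal of infected wells without compound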
INS promoter inh cell count: second read-out of INS promoter inh, no call of its own (marks repeat the call); normalized cell count, %; measured here: cell count, toxicity; reference of the scale not given here;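 cells exposed to compound for 48 h; stained nuclei by imaging scaled within each plate; lower means fewer cells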
HSV replic up primary fold: recorded beside HSV replic up, whose call it bears; fold increase; compound at 10 µM; measured here: primary screen fold increase 10 uM; tested in PC3 cells;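 GFP signal in the first replicate; 1 = infected wells without compound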
* = called active by the depositor; i = inactive; . = not tested or not shown. Compounds were not picked by outcome; about 1.3% have a hit in one of these screens.

Start of the listing, in advance:
SMILES | GALR2 agonist | PKD1 kinase inh | INS promoter inh | INS promoter inh cell count | RGS16-Gao HTS | HSV replic up | HSV replic up primary fold
CS(=O)(=O)N(CC(=O)NN=C1CCCCCC1)c1ccc(Oc2ccccc2)cc1 | . | 3.0 | . | . | 108.8 | i | 1.1
Cc1ccc(C2C(C#N)=C(N)SC(N)=C2C#N)c(C)c1 | -0.8 | -1.2 | 3.9 | 132.1 | 98.4 | i | 1.13
NNC(=O)c1cc2c(s1)-c1cc(Cl)ccc1SC2 | . | . | . | . | 93.5 | i | 0.95
CC(C)(C)OC(=O)N1CCCC1C(=O)NC(Cc1ccccc1)C(=O)O (centres undefined) | -2.2 | -5.5 | 61.9 | 83.4 | 90.7 | i | 1.03

The list itself, previewed entries included:
SMILES | GALR2 agonist | PKD1 kinase inh | INS promoter inh | INS promoter inh cell count | RGS16-Gao HTS | HSV replic up | HSV replic up primary fold
CS(=O)(=O)N(CC(=O)NN=C1CCCCCC1)c1ccc(Oc2ccccc2)cc1 | . | 3.0 | . | . | 108.8 | i | 1.1
Cc1ccc(C2C(C#N)=C(N)SC(N)=C2C#N)c(C)c1 | -0.8 | -1.2 | 3.9 | 132.1 | 98.4 | i | 1.13
NNC(=O)c1cc2c(s1)-c1cc(Cl)ccc1SC2 | . | . | . | . | 93.5 | i | 0.95
CC(C)(C)OC(=O)N1CCCC1C(=O)NC(Cc1ccccc1)C(=O)O (centres undefined) | -2.2 | -5.5 | 61.9 | 83.4 | 90.7 | i | 1.03
COc1ccc(C(=O)c2c(C)c3ccccc3n2CC(O)CNC(C)C)cc1 (centres undefined) | -0.8 | 4.6 | -100.0 | 78.3 | 101.4 | i | 0.83
Nc1ccc2nc(NC(=O)C3CCCCC3)sc2c1 | . | -2.4 | -12.8 | 92.1 | 104.6 | i | 0.87
O=c1c2cn[nH]c2nc(SCc2ccc3c(c2)OCCO3)n1-c1ccccc1 | -1.4 | 2.2 | 25.8 | 82.8 | 101.6 | i | 0.893
CCOc1ccc(OCCOCCNCCOC)cc1 | -0.7 | -11.5 | 11.5 | 127.8 | 111.2 | i | 0.93
Cc1nc2cc(NC(=O)N3CCN(c4ccccn4)CC3)ccc2o1 | -3.1 | -10.5 | -20.6 | 213.6 | 92.2 | i | 1
COc1ccc(C(C(=O)NC2CCCC2)N(Cc2ccc(F)cc2)C(=O)c2ccn[nH]2)cc1OC (centres undefined) | -2.2 | -12.4 | 10.7 | 94.1 | 101.7 | i | 0.88
CN(CC(=O)Nc1ccccc1Br)c1ncnc2sccc12 | . | -8.7 | . | . | 95.2 | i | 0.91
CCN(c1ccc(NC(=O)COC(=O)CCc2nc3ccccc3n2-c2ccccc2)cc1)C(C)C | -2.0 | -6.0 | 10.0 | 116.5 | 94.4 | i | 0.9
CCOc1cc(C)c(Cl)cc1S(=O)(=O)NCc1ccc2c(c1)OCO2 | -0.1 | 4.5 | -42.9 | 83.9 | 87.2 | i | 0.78
O=C(NNC(=S)NC1CC2C=CC1C2)c1ccncc1 (centres undefined) | . | . | . | . | 100.9 | i | 1.03
Cc1nnc(SCC(=O)Nc2cc(C(F)(F)F)ccc2N2CCOCC2)o1 | -1.7 | 3.6 | -20.0 | 90.0 | 106.9 | i | 0.94
CCN(CC)C(=O)C1CCCN(C/C(C)=C/c2ccccc2)C1 (centres undefined) | -4.0 | 2.1 | . | . | 98.8 | i | 0.73
FC(F)(F)c1nnc(N2CCN(c3ccc(Cl)cc3)CC2)s1 | . | . | . | . | 102.8 | i | 0.93
COc1ccccc1C(CNC(=O)c1ccc(S(=O)(=O)NCc2ccco2)cc1)N(C)C (centres undefined) | -0.3 | -8.9 | -57.9 | 118.1 | 97.1 | i | 0.94
CCN(CC)CCn1c(OC)cc(=O)[nH]c1=O | -1.2 | -3.4 | -500.0 | 62.9 | 103.0 | i | 0.68
Fc1ccc(Br)cc1C1C=C(c2ccc(Br)cc2)Nc2ncnn21 (centres undefined) | -0.5 | 5.8 | 54.8 | 154.9 | 115.3 | . | .
COc1ccc(NC(=O)C(c2ccccc2)c2ccccc2)cn1 | . | -4.1 | . | . | 98.5 | i | 1.03
COc1ccc(/C=C/C(=O)OCC(=O)Nc2ccc(N3CCOCC3)cc2)cc1 | . | -8.1 | 7.1 | 63.5 | 101.6 | . | .
COc1ccccc1OCC(=O)N1CC2(C)CC1CC(C)(C)C2 (centres undefined) | -0.3 | -5.2 | -17.2 | 77.9 | 98.2 | i | 0.99
COc1cccc(NC(=O)/C=C/c2ccccc2[N+](=O)[O-])c1 | -0.4 | 4.8 | 22.2 | 116.6 | 104.4 | i | 0.85
CCOc1ccc(C(C)C)cc1S(=O)(=O)n1ccnc1C | . | 9.0 | . | . | 101.2 | i | 1.21
Cc1ccc2nsnc2c1S(=O)(=O)NC1CC1 | -3.3 | 0.6 | 37.9 | 135.4 | 91.9 | i | 0.69
NC(=O)C1(N2CCCCC2)CCN(C(=S)Nc2ccc(Cl)cc2)CC1 | -2.7 | -14.0 | -136.7 | 107.0 | 193.2 | i | 0.93
CC(C)C(=O)Nc1ccc(NC(=O)c2cccs2)cn1 | -1.1 | -1.4 | . | . | 98.8 | i | 0.54
O=C(COC(=O)c1ccc(NS(=O)(=O)c2cccs2)cc1)Nc1nc2c(F)c(F)c(F)cc2s1 | . | 7.2 | 33.3 | 106.5 | 105.0 | i | 1.14
O=C1N=C(N2CCN(c3ccccc3)CC2)SC1Cc1ccccc1 (centres undefined) | -1.9 | -3.8 | -6.2 | 61.4 | 104.7 | i | 1.03
N#CCc1ccc(C(=O)c2ccccc2)s1 | -2.4 | 0.1 | -16.7 | 129.1 | 97.7 | i | 1.16
O=C(NCc1ccc(Cl)s1)c1cc(COc2c(F)cccc2F)on1 | . | -3.0 | 20.0 | 143.5 | 125.8 | i | 0.82
Cc1c(Oc2ccc(C(F)(F)F)cc2[N+](=O)[O-])ccc2c3c(c(=O)oc12)CCC3 | -0.7 | -1.6 | -14.3 | 108.0 | 98.3 | i | 1.06
COC(=O)CC1C(=O)NCCN1C(=O)CSc1nc2ccc([N+](=O)[O-])cc2s1 (centres undefined) | . | -5.8 | . | . | 107.5 | i | 0.96
CSc1nc(NC(C)=O)nc(C)c1Cl | -3.4 | 4.5 | -37.5 | 90.4 | 93.6 | i | 0.89
CCN(CC)S(=O)(=O)c1ccc2[nH]cc(C(=O)NCCC3=CCCCC3)c(=O)c2c1 | -0.5 | 4.2 | 7.1 | 111.5 | 160.5 | i | 0.82
O=S(=O)(NCCC1=CCCCC1)c1cccc2nsnc12 | -1.2 | -0.7 | . | . | 103.7 | i | 0.98
Cc1ccc(-c2csc3nc(C)n(-n4cccc4)c(=O)c23)o1 | -2.1 | 0.7 | . | . | 99.1 | i | 0.97
CC1(C)CC(=O)C2=C(C1)NC(SCC(=O)Nc1ccccc1)=C(C#N)C21CCCCC1 | -2.3 | 0.6 | . | . | 98.2 | i | 0.89
O=C(/C=C/Nc1ccc([N+](=O)[O-])cc1Br)c1cccc2ccccc12 | -2.0 | -10.4 | -5.6 | 129.5 | 95.9 | i | 1.01
Cc1ccc2[nH]c(=O)c(-c3noc(C(C)C)n3)cc2c1 | -1.9 | 3.1 | . | . | 102.0 | i | 0.97
CCCS(=O)(=O)N1CCCC(C(=O)N2CCC(Cc3ccccc3)CC2)C1 (centres undefined) | -0.8 | -10.0 | 50.0 | 82.3 | 103.1 | i | 0.93
CCN(CC)S(=O)(=O)c1cc([N+](=O)[O-])ccc1NNC(=O)Nc1ccc(F)cc1 | -2.5 | 2.0 | . | . | 93.7 | i | 0.89
Cc1cc(C)n(CC(=O)n2c3c(c4ccccc42)CCCC3)n1 | -1.1 | 6.8 | -45.5 | 68.8 | . | i | 0.84
Nc1nonc1-c1nc2ccccc2[nH]1 | -1.9 | 7.9 | -55.6 | 95.8 | 103.5 | i | 1.01
CC(=O)NC1(C(F)(F)F)C(=O)NC(C)=C1C#N (centres undefined) | -1.1 | -7.9 | 28.6 | 56.2 | 102.1 | i | 1.04
O=C(CSC1CC(=O)N(CCc2ccccc2)C1=O)Nc1cccc(Cl)c1 (centres undefined) | 0.4 | -6.4 | 6.7 | 137.0 | 112.8 | i | 1.03
COc1ccc(NC(=O)c2cc3ccccn3n2)cc1 | -1.5 | -8.5 | . | . | 100.3 | i | 1.02
CCOC(=O)C(C(=O)NCc1ccc(F)cc1)c1ncc(C(F)(F)F)cc1Cl (centres undefined) | 0.3 | -4.5 | 0.0 | 127.1 | 75.8 | i | 0.89
O=C(OC1CCCCC1=O)c1cccc(S(=O)(=O)NCc2ccccc2)c1 (centres undefined) | -3.1 | -8.2 | -17.6 | 52.0 | 100.0 | i | 0.76
COCCCNC(=O)Cc1ccccc1OC | -2.7 | 3.5 | 6.5 | 73.2 | 102.1 | i | 0.96
O=C1CC(c2ccccc2)CC(O)=C1C=NC1CCCCCC1 (centres undefined) | -0.1 | 1.3 | . | . | 100.5 | i | 0.83
CCOC(=O)c1ccccc1NC(=O)CSc1nncn1C | . | -0.3 | . | . | 30.6 | i | 0.92
Cc1ccc(C(=O)c2coc3ccc(O)c(CN4CCN(C)CC4)c23)cc1 | -1.7 | -0.7 | . | . | 187.9 | i | 0.81
O=S(=O)(c1ccccc1)n1ccc2cccnc21 | -2.2 | -3.6 | 44.7 | 72.0 | 99.2 | i | 0.96
COc1ccccc1-n1c(=O)[nH]c2c(C(N)=O)nc(-c3cccnc3)nc21 | . | . | . | . | 60.6 | i | 0.93
O=C(COc1cccc(NC(=O)c2cccs2)c1)c1ccc(F)cc1 | -0.4 | -9.9 | -66.7 | 105.6 | 107.1 | i | 0.93
CCS/C(N)=N/N=C/c1cc(C)ccc1O | -0.7 | -0.3 | 43.8 | 209.5 | 100.3 | i | 0.91
Cc1ccc(NC(=O)COC(=O)Cn2cnc3ccccc32)c([N+](=O)[O-])c1 | . | -7.2 | . | . | 102.3 | i | 0.59
Cn1c(=O)c2c(nc(Br)n2CCc2ccccc2)n(C)c1=O | -1.3 | 9.1 | 53.9 | 79.2 | 96.4 | i | 0.84

Further compounds
SMILES | GALR2 agonist | PKD1 kinase inh | INS promoter inh | INS promoter inh cell count | RGS16-Gao HTS | HSV replic up | HSV replic up primary fold
O=C(CCl)Nc1ccc(-c2ccccc2)cc1 | . | 0.7 | . | . | 102.1 | i | 0.81
CCOC(=O)C1=C(C)NC(=O)NC1c1ccc(-c2ccccc2F)o1 (centres undefined) | -0.2 | 0.4 | 0.0 | 132.7 | 109.7 | i | 0.89
O=c1c(Cl)c(Cl)cnn1Cc1nnc(-c2ccc(Cl)cc2)o1 | . | -4.2 | i | 6.8 | 93.3 | i | 0.59
COc1ccc(/C=C2\CCCC3C2=NN(C(=O)CSc2n[nH]c(N)n2)C3c2ccc(OC)cc2)cc1 (centres undefined) | . | 3.0 | 30.0 | 97.6 | 115.2 | i | 0.86
CN(C)S(=O)(=O)c1cccc(NC(=S)NCCCn2ccnc2)c1 | . | -6.6 | 33.3 | 74.4 | 100.2 | i | 0.63
O=C(CC1S/C(=N/N=C/c2c[nH]c3ccc(OCc4ccccc4)cc23)NC1=O)Nc1ccccc1 (centres undefined) | -1.7 | -9.3 | 51.7 | 90.3 | 78.4 | i | 1.06
COc1ccc(C(c2sc3ncnn3c2O)N2CC(C)OC(C)C2)cc1OC (centres undefined) | -0.4 | 10.3 | . | . | 106.7 | i | 1.03
CC(C)(C)CC(=O)NCc1ccc(F)cc1 | 0.1 | 0.6 | 73.3* | 26.4* | 111.0 | i | 0.98
O=S(=O)(Nc1nc2c(s1)CCCC2)c1ccc2ccccc2c1 | -1.2 | 0.9 | 3.1 | 71.4 | 101.3 | i | 0.96
CCOC(=O)c1cncc(C(=O)O)c1 | -1.0 | 1.5 | 36.8 | 62.1 | 101.4 | i | 0.96
CN1CCN(CC(=O)NN2CC(=O)N(c3ccc(F)cc3)CC2=O)CC1 | . | . | . | . | 103.6 | i | 0.99
CCOC(=O)NC(=O)CSc1nc2ccc(C)cc2[nH]1 | . | -9.1 | . | . | 96.3 | i | 0.9
N#Cc1nc(-c2ccco2)oc1NCCN1CCOCC1 | -0.8 | -2.5 | 21.4 | 134.7 | 99.5 | i | 0.92
COc1ccc(S(=O)(=O)CCC(=O)N2CC(=O)N(CCc3ccccc3)C(=O)C2)cc1 | -1.8 | -5.0 | . | . | 105.6 | i | 0.94
COC(=O)c1[nH]c2cc(OC)ccc2c1N=CN(C)C | . | . | . | . | 92.1 | i | 1.06
COc1ccc(C2CC(c3ccc4ccccc4c3OC(C)=O)=NN2C(=O)/C=C/c2ccccc2)cc1 (centres undefined) | 0.6 | -5.5 | -11.4 | 71.7 | 102.0 | i | 1
Cc1ccc(S(=O)(=O)NC(CC(=O)O)c2ccco2)cc1 (centres undefined) | -1.4 | -5.3 | . | . | 103.1 | i | 1.02
CN(C)c1nc(Nn2cnnc2)nc(N(C)C)n1 | . | . | . | . | 99.5 | i | 1.11
